Source: PubChem
KCNQ2 pot: potentiators of rat KCNQ2 potassium channel; CHO-K1 KCNQ2, FluxOR thallium flux fluorescence; hits give high values; B-score at 10 µM; 310,000 compounds, 0.54% hits; AID 2239, 2010;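 active = fluorescence ratio B-score at least 3 SD of library B-scores, with initial fluorescence B-score within 3 SD, cut at about 5.3 in these data; same plate scores as AID 2156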;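 note: B-score of peak minus minimum over baseline fluorescence ratio after K+ and Tl+ stimulus; positive B-score means potentiation of KCNQ2 with more thallium influx and brighter signal; only the inactives scoring about 0 or higher are listed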
Target sequence (O88943 whole entry, looked up): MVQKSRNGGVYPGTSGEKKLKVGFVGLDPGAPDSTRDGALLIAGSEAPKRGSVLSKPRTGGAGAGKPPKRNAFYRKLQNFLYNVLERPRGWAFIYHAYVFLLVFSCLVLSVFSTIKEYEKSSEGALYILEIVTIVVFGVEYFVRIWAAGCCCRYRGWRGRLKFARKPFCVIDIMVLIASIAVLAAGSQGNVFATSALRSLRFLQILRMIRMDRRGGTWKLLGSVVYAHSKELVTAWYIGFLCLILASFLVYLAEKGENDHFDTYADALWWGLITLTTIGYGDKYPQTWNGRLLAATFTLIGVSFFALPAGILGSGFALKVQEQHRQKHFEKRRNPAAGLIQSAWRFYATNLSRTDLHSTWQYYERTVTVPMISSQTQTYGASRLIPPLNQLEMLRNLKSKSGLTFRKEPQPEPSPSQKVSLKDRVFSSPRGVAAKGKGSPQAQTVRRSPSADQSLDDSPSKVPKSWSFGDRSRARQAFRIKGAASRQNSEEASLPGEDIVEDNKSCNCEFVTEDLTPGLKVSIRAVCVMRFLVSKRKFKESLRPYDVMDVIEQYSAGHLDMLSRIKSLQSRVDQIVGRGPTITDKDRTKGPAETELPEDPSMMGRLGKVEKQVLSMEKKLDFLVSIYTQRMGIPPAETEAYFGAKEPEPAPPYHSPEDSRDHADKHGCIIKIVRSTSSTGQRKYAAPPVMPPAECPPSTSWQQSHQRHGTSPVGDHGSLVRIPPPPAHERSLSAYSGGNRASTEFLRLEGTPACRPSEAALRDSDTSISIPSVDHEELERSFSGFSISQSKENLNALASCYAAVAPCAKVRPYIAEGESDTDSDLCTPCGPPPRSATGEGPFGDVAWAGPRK
KCNQ2 pot baseline: recorded beside KCNQ2 pot, whose call it bears; B-score; compound at 10 µM; measured here: initial fluorescence intensity artifact check;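 brightness before thallium and not channel activity; 0 = typical well and far values either way flag optical interference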
The depositor's hits bear a star; / = not tested or not shown. Some of the compounds tested (hit frequency here may not be typical).

structure | KCNQ2 pot | KCNQ2 pot baseline
O=C(Cc1cccc2ccccc12)N/N=C/c1ccncc1 | 0.78 | -0.14
Cc1ccc(OCC(=O)Nc2cc(-c3nn4c(C)nnc4s3)ccc2C)cc1 | 0.39 | 0.04
CCN(c1ccc(NC(=O)c2cccc(S(=O)(=O)N3CCN(C)CC3)c2)cc1)C(C)C | 0.02 | 0.04
COc1ccc(CCNC(=S)N2CCN(S(=O)(=O)c3ccc(Cl)cc3)CC2)cc1 | 0.73 | 0.54
C#CC(C)(C)NC(=O)c1ccccc1OC | 1.2 | -1.4
COc1ccc(S(=O)(=O)N(C)CC(=O)NC2CCCC2)cc1Cl | 1.4 | 1.2
COc1cc(C(=S)N2CCOCC2)cc(OC)c1OC(=O)c1ccc([N+](=O)[O-])cc1[N+](=O)[O-] | 1.4 | -1.6
O=C(Nc1ccc(S(=O)(=O)Nc2ncccn2)cc1)c1ccc(F)c(S(=O)(=O)N2CCOCC2)c1 | 0.19 | 0.83
OC(COc1cccc(OCC(O)CN2CCOCC2)c1)CN1CCOCC1 (configuration not stated) | 0.54 | /
COc1ccnc(Oc2ccccc2)n1 | 0.91 | 0.38
Cc1ccc(Cn2c(C3CCCN3c3nc(-c4ccc(F)cc4)cs3)nc3cc(Cl)c(Cl)cc32)cc1 (configuration not stated) | 0.66 | 0.01
O=C1C(=O)N(c2ccccn2)C(c2cccc([N+](=O)[O-])c2)/C1=C(/O)c1ccc(Br)cc1 (configuration not stated) | 0.37 | -0.67
O=C(Nc1ccc(Cl)c(C(F)(F)F)c1)c1ccncc1 | 1.5 | -0.9
O=C1[C@@H]2[C@H](C(=O)N1n1cnnc1)[C@H]1C=C[C@@H]2C1 | 0.08 | 0.13
CCCOC(=O)c1ccc(NC(=O)CCC(=O)OCC)cc1 | 1.6 | 0.19
O=C(Cc1cccs1)N1CCN(S(=O)(=O)c2cc(Cl)ccc2Cl)CC1 | 2.3 | 0.07
O=C(NCCNC(=O)c1cccnc1)c1ccc(Br)cc1 | 0.01 | -0.05
CCOC(=O)CC(=O)Nc1ccsc1C(N)=O | 0.01 | 0.16
CCOC(=O)C1=C(C)Nc2nnnn2C1c1c[nH]c2ccccc12 (configuration not stated) | 0.66 | 0.26
CSCCC(=O)N1CCC(n2nccc2NC(=O)CCc2ccccc2)CC1 | 1.5 | -2.7
COc1ccc(-c2nc(C#N)c(NCCCN(C)C)o2)cc1OC | 0.3 | -0.07
O=C1CN(C(=O)c2ccccc2Cl)c2ccccc2N1 | 1.2 | 0.91
Cc1ccc(C(=O)Oc2ccccc2C(=O)N2CCOCC2)cc1 | 1.9 | 0.35
COc1cc(/C=C\C(=O)O)cc(S(=O)(=O)N2CCCCCC2)c1OC | 0.74 | 0.37
COc1ccc(N2C(=O)CN=C2Nc2cccc(C)c2C)cc1OC | 1.9 | -0.08
CC(=O)Nc1ccc(OCC(=O)N2CCC(Cc3ccccc3)CC2)cc1 | 1.2 | 0.15
CC(C)N1CCc2c(sc(NC(=O)c3ccc(S(=O)(=O)N(C)CC4CCCO4)cc3)c2C(N)=O)C1 (configuration not stated) | 0.59 | -0.05
CC1(c2ccco2)NC(=O)NC1=O (configuration not stated) | 0.01 | 1.8
Cc1nc2ccccc2n1/N=C/c1cccnc1 | 0.74 | -0.04
CC(=O)Nc1ccc(NC(=O)CN(C)S(=O)(=O)c2ccc3nc(C)sc3c2)cc1 | 0.74 | -0.28
CCOC(=O)C1CCN(Cc2ccc(F)cc2F)CC1 | 0.23 | 0.57
O=C1CCCc2c1nc(-c1ccc(F)cc1)n2O | 0.5 | 0.85
CCOC(=O)c1cnc2c(C(=O)OC)cccc2c1NCc1cccnc1 | 2.1 | -1.4
Cc1ccc(C(=O)C2CCN(C(=O)c3ccc(C)cc3)CC2)cc1 | 0.29 | 0.8
C#CC(C)(CC)NC(=O)c1cc2cccc(CC=C)c2oc1=O (configuration not stated) | 1.2 | 0.1
CCC(Sc1nccn1C)C(=O)Nc1nnc(C)s1 (configuration not stated) | 1.5 | -0.06
COc1ccc(Oc2nccc(-c3ccc(F)cc3)c2C#N)cc1 | 1.7 | -0.61
Cc1cccc(C(=O)N/N=C/c2coc3ccccc3c2=O)c1 | 0.08 | -1.2
Cc1cc(NC(=O)c2ccc(Cl)cc2)n(CCC#N)n1 | 0.01 | -1.6
CN(C)S(=O)(=O)c1cccc(NC(=O)COC(=O)CCC(=O)c2ccc(F)cc2)c1 | 1.6 | 1.8
CC(=O)c1ccc(N2CCN(C(=O)Nc3ccc(C)cc3)CC2)cc1 | 0.64 | 2.3
CCc1noc(C)c1C(=O)OCC(=O)Nc1ncc(Cl)cc1Cl | 0.14 | -0.07
COc1ccc(C(CC(=O)N2CCCCC2)c2c(OC)cc(OC)c3ccc(=O)oc23)cc1 (configuration not stated) | 1.1 | -0.3
Cc1cccc(NC(=O)C2CCCN(S(=O)(=O)c3cccc4nsnc34)C2)c1 (configuration not stated) | 0.05 | 0.4
CCOc1ccc(-c2ccc(SCc3ccccn3)nn2)cc1 | 0.7 | -0.07
CCOC(=O)N1CCN(C(=O)CCn2c(=O)[nH]c3ccsc3c2=O)CC1 | 0.14 | 0.26
Cc1c(C(=O)N2CCN(c3ccccc3)CC2)oc2c1C(=O)CC(C)(C)C2 | 0.22 | -3
O=C(c1ccco1)N1CCN(c2nc3ccsc3c(=O)s2)CC1 | 2.6 | -0.54
CCCc1cc(=O)n2[nH]c(-c3ccc(OC)cc3)nc2n1 | 0.01 | 1.4
O=[N+]([O-])c1ccc(N2CCOCC2)cc1NCc1ccccc1 | 0.34 | 0.34
CN1CCCN(C(=O)c2ccc(Cl)c(S(=O)(=O)N(C)c3ccccc3)c2)CC1 | 1.2 | -0.96
CCc1ccc(S(=O)(=O)Nc2ccc(-c3nc4cccnc4s3)cc2)s1 | 0.83 | 0.68
CC1(C)CC(=O)c2sc(NC(=O)CN3CCOCC3)nc2C1 | 1.6 | -0.15
Cn1c(OCc2ccc3c(c2)OCO3)nc2c1c(=O)n(Cc1cccc(Cl)c1)c(=O)n2C | 0.06 | 0.68
CCOC(=O)c1nnn(-c2nonc2NC(C)=O)c1C | 1.1 | 3.4
COc1ccc(NC(=O)c2c(N)no[n+]2[O-])cc1 | 0.95 | 1.7
COc1ccc(C(=O)Nc2ccnn2C2CCN(C(=O)c3cccnc3)CC2)cc1 | 0.1 | 0.48
Cn1nnnc1SCC(=O)Nc1ncc(Cl)cc1Cl | 1.6 | 2.9
COc1cccc(C(=O)Nc2c3c(nc4c2CCC4)CCCC3)c1 | 0.93 | 1.9
CCC(=O)Nc1cc(C(=O)O)ccc1Sc1ccc(Cl)cc1 | 1.5 | -0.25

Part of the list above, field by field.
COc1ccc(C(=O)Nc2ccnn2C2CCN(C(=O)c3cccnc3)CC2)cc1
  KCNQ2 pot = 0.1; KCNQ2 pot baseline = 0.48

COc1cccc(C(=O)Nc2c3c(nc4c2CCC4)CCCC3)c1
  KCNQ2 pot = 0.93; KCNQ2 pot baseline = 1.9

Cc1ccc(C(=O)C2CCN(C(=O)c3ccc(C)cc3)CC2)cc1
  KCNQ2 pot = 0.29; KCNQ2 pot baseline = 0.8

3 of the entries above in order of the KCNQ2 pot baseline value, ascending.
structure | KCNQ2 pot | KCNQ2 pot baseline
CC1(C)CC(=O)c2sc(NC(=O)CN3CCOCC3)nc2C1 | 1.6 | -0.15
CCOC(=O)N1CCN(C(=O)CCn2c(=O)[nH]c3ccsc3c2=O)CC1 | 0.14 | 0.26
Cn1nnnc1SCC(=O)Nc1ncc(Cl)cc1Cl | 1.6 | 2.9

Later entries:
Every second line gives: KCNQ2 pot	KCNQ2 pot baseline
- CCN1C(=O)CC(N2CCC(C(=O)N3CCOCC3)CC2)C1=O (configuration not stated)
    0.11	0.84
- COC(=O)c1ccc(NC(=O)Nc2ccc(F)c(Cl)c2)cc1
    0.42	-0.83
- O=C(COC(=O)Cc1ccsc1)NC1CCCCCC1
    0.91	0.55
- O=C(Nc1ccccc1C(=O)O)c1cc(S(=O)(=O)NCc2ccccc2)ccc1Cl
    0.48	0.6
- O=C(NCc1ccc(Cl)cc1)C(=O)NCC1OCCN1S(=O)(=O)c1ccc2c(c1)OCCO2 (configuration not stated)
    0.21	-1.3
- COc1ccc(C(=O)CSc2nc3cccnc3n2C)cc1
    0.73	0.06
- COCCNc1nnc(SC(C)C(=O)Nc2ccc(-c3nc4ccc(C)cc4s3)cc2)s1 (configuration not stated)
    0.07	-0.01
- O=C(Oc1ccc2c(=O)c(Oc3ccc4ccccc4c3)coc2c1)c1cncc(Br)c1
    0.02	0.2
- COC(=O)c1cc2ccsc2n1CC(=O)Nc1ccc(N(C)C)cc1
    0.37	0.68
- COc1ccc(N(CC(=O)Nc2ccc(C)c(C)c2)S(=O)(=O)c2c(C)n[nH]c2C)cc1
    0.74	1.5
- CCC(=O)C1=C(N2CCCC2)CC(C)(C)CC1=O
    0.37	0
- CCCn1cc(CN2CCc3ccc(NC(=O)C4CCCO4)cc3C2)c(C)n1 (configuration not stated)
    1.1	-0.04
- Cc1ccnc(NC(=S)NC(=O)/C=C/c2ccco2)c1
    0.97	3.2
- Cc1nc2c(-c3ccc(F)cc3)cnn2c2c1CCC2
    1	0.77
- Cc1ccc(-c2ccc(SCC(=O)N3CCN(c4ccccc4)CC3)nn2)cc1
    1.6	0.3
- Cc1cccc(C)c1NC(=O)C(=O)NCC1CCCN1S(=O)(=O)c1cccs1 (configuration not stated)
    0.27	1
- CC(C)C[C@@H]1NC(=O)[C@H](C(C)C)NC(=O)c2cc([N+](=O)[O-])cc(I)c2NCC[C@@H](C(N)=O)NC1=O
    0.26	-0.05
- O=S(=O)(c1ccc(N2CCN(S(=O)(=O)c3ccc4c(c3)OCCO4)CC2)nc1)N1CCCC1
    0.28	-0.95
- COCCn1c(-c2ccccc2)nc2oc3ccccc3c(=O)c2c1=O
    0.57	3.8
- Cc1ccc(-n2nnnc2SCC(=O)c2ccc3c(c2)NC(=O)CO3)c(C)c1
    2	3
- Nc1nc(C2C(=O)CCCC2=O)cs1
    1.2	-0.98
- O=c1c2[nH]c3ccc(Cl)cc3c2ncn1Cc1ccccn1
    0.18	-0.75
- C/C(=N\NC(=O)C1CCCC1)c1ccc(Cl)cc1Cl
    0.76	0.84
- CC(C)(C)NC(=O)CN(Cc1ccccc1)S(=O)(=O)c1ccccc1
    0.11	0.38
- CCN1C(=O)/C(=C\N2CCN(C)CC2)SC1=S
    2.3	0.46
- Clc1cccc(Cl)c1CO/N=C/c1cccs1
    0.65	1.2
- c1ccc(-c2nn3c(-c4ccco4)nnc3s2)nc1
    0.22	-0.59
- CC1(C)CCC(=O)N(c2ccccc2)C1=O
    0.77	0.37
- O=C(N/N=C/C=C/c1ccccc1)c1cccc(Br)c1
    0.41	-0.91
- CCOc1[nH]n(-c2ccccc2)c(=O)c1C=NCC(=O)OC
    0.07	-1

Arranged by molecular weight (low to high): three of the compounds above.
Every second line gives: KCNQ2 pot	KCNQ2 pot baseline
- COC(=O)c1cc2ccsc2n1CC(=O)Nc1ccc(N(C)C)cc1
    0.37	0.68
- COCCNc1nnc(SC(C)C(=O)Nc2ccc(-c3nc4ccc(C)cc4s3)cc2)s1 (configuration not stated)
    0.07	-0.01
- O=C(NCc1ccc(Cl)cc1)C(=O)NCC1OCCN1S(=O)(=O)c1ccc2c(c1)OCCO2 (configuration not stated)
    0.21	-1.3

(further entries)
Every second line gives: KCNQ2 pot	KCNQ2 pot baseline
- O=C(CCCOc1ccc(Cl)cc1Cl)N/N=C/c1ccc(Cl)cc1
    0.22	-0.07
- COc1ccc2cc(C(N)=O)/c(=N/NC(=O)c3ccco3)oc2c1
    3.3	-1.6
- CNC(=O)Cn1nc(-c2ccc(C)c(S(=O)(=O)N(C)C)c2)c2ccccc2c1=O
    1.1	0.02
- CCOc1ccccc1NC(=O)C(CC)Sc1nc2ccsc2c(=O)n1CCC(=O)O (configuration not stated)
    0.13	-0.12
- COc1cc(OC)c(/C=N/NC(=O)c2ccc([N+](=O)[O-])cc2)cc1Br
    0.07	-1.5
- COc1ccc(C(=O)NC(CC(=O)O)c2cc([N+](=O)[O-])ccc2Cl)cc1 (configuration not stated)
    1.4	-2.5
- O=C(NCc1ccncc1)c1ccc(Cl)c(S(=O)(=O)N2CCOCC2)c1
    1.3	-0.29
- COc1ccc(NC(=O)CC2C(=O)N(c3cccc(OC)c3)C(=O)N2Cc2ccco2)cc1 (configuration not stated)
    0.6	-2
- COCC(=O)Nc1ccc(S(=O)(=O)NCC2CCCO2)cc1 (configuration not stated)
    1.2	-1.9
- O=C(Cc1nn[nH]n1)NCc1ccccc1Cl
    0.33	-2.5
- O=C(Nc1cccc(Cl)c1)Nc1ccc2c(c1)C(=O)OC2
    0.33	3.4
- CCc1cccc(NS(=O)(=O)c2ccc3c(c2)NC(=O)CO3)c1
    1.8	1
- CCOc1cnc(-c2ccccc2F)o1
    0.88	0.43
- COC(=O)c1ccc(NC(=O)C2CCCN2C(=O)Nc2cccc(C(C)=O)c2)cc1 (configuration not stated)
    1.6	1.8
- CO/N=C/C(C#N)c1ncc(C(F)(F)F)cc1Cl (configuration not stated)
    0.3	0.69
- O=C(Nc1ccccc1F)C1CCN(S(=O)(=O)c2cccc3nonc23)CC1
    2.2	-1.6
- CCOC(=O)N1CCN(c2cc3[nH]c(=S)[nH]c3cc2F)CC1
    1	0.07
- Cc1ccc(S(=O)(=O)NCC2(c3ccccc3)CCN(C)CC2)cc1
    0.08	-0.63
- N#Cc1c(N)nc2c(c1N)CC(COc1ccccc1)O2 (configuration not stated)
    0.15	0.62
- CN(NC(=O)c1ccccc1)c1nc2ccccc2nc1C(F)(F)F
    0.26	0.74
- Cc1ccc(C(=O)Nc2ccccc2C(=O)N2CCCC(C)C2)cc1 (configuration not stated)
    0.55	-0.75
- COc1ccc(CNC(=O)[C@H](C)NC(=O)C2CC(=O)N(c3ccc4c(c3)OCO4)C2)cc1 (some centres not stated)
    0.6	0.73
- CCNC(=O)CSc1nc2sccc2c(=O)n1-c1ccccc1
    0.05	0.51
